Assay outcomes from PubChem.
CSC inhib: cancer stem cell inhibition; cancer stem cell-like cells viability, luminescence; inhibition, % at 7.5 µM; 300,000 tested, 1.1% active; AID 2717;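 active means mean at 75% or more and at least half the replicates too; inconclusive means mean and replicates disagree; tested in HMLE shEcad cells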;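 further: 0% = median of negative and 100% = median of positive control wells; the first replicate is given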
eIF4H inh: inhibitors of RNA binding by human eIF4H. Q15056. eIF4H fluorescence polarization binding assay. inhibition, % at 35 µM. 290,000 tested, 0.94% active. AID 2012;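 active means 50% or more with normal probe brightness, or confirmed in later tests; inconclusive means above 50% with abnormal brightness, or retests that disagree; inactive means below 50% or failed in later tests; about a fifth of its hits are not listed in these tables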;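 further: calls also rest on retests at 20 µM and on dose response follow-up; 0% = protein and probe with vehicle and 100% = probe without protein; strong numbers were not always called active; many hits fall short of the cut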
PABP polyA inh: blocks human PABP binding to poly(A) RNA; P11940; fluorescence polarization; inhibition, % at 35 µM; 290,000 tested, 1% active; AID 2014;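 active means 50% or more with normal probe brightness, or confirmed in later tests; inconclusive means above 50% with abnormal brightness, or retests that disagree; inactive means below 50% or failed in later tests; about a fifth of its hits are not listed in these tables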;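 further: calls also rest on retests at 20 µM and on dose response follow-up; controls were probe without protein and protein plus probe with vehicle; some compounds called inactive have numbers as strong as hits; many hits fall short of the cut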
Target sequence (P11940 whole entry, looked up): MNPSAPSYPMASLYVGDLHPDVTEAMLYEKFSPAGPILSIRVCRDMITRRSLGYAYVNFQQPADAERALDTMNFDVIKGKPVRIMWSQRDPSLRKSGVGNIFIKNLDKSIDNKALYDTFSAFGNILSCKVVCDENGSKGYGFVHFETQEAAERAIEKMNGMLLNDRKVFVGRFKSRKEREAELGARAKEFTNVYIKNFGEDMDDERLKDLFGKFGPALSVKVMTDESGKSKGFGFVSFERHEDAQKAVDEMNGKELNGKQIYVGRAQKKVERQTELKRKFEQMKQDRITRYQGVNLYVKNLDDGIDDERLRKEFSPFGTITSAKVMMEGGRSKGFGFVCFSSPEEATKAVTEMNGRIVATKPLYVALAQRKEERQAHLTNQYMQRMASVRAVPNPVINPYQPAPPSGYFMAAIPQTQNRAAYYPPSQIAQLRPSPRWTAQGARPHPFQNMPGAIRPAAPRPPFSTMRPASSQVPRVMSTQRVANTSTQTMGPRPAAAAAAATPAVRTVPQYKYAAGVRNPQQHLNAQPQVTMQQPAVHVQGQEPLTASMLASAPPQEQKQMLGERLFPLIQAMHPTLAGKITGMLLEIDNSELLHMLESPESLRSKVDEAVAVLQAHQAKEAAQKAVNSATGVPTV
Yeast UUG start: alters start codon recognition fidelity in yeast; activity score, % at 18.7 µM; 350,000 tested, 0.13% active; S. cerevisiae UUG-firefly luciferase reporter, luminescence/redox ratio;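 active means replicate mean at a twofold rise or more, about +100% in these data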;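 further: firefly luciferase made from a UUG start codon reports start codon fidelity; reporter light over untreated wells divided by growth signal over untreated wells; some hits fall short of that in this replicate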
MT1-MMP act inh: MT1-MMP (human) activation inhibition; GFP/RFP ratio change, % at 20 µM; AID 651647; HT1080 RFP-PRO-GFP cells, GFP/RFP ratio fluorescence, overnight; percent of plate control window, DMSO zero; P50281; 360,000 tested, 0.061% active;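 active means GFP/RFP ratio change of at least 30% with cell ATP level not reduced by more than half and red fluorescence within 50% of control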; further: strong numbers were not always called active
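Test system: HT1080 RFP-PRO-GFP cells; Benchmarks: DMSO and RFP-L50D-GFP cell wells; Timing: cells overnight before dosing, compound overnight, 37 °C, 5% CO2; Compound: one 20 µM compound dose with 1% DMSO; Read-out: GFP/RFP fluorescence ratio.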
Env fusion inh: blocks HIV Env-driven cell-cell fusion; inhibition, % at 12.3 µM; 360,000 tested, 1.1% active; HeLa-JRFL Env/CEM21 cell fusion, luciferase; AID 651610;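 active means mean replicate inhibition score of at least 50 and every replicate individually at or above 50; inconclusive means only one of the two criteria met; inactive means mean below 50 and not all replicates reaching 50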;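 further: 0% = plate neutral controls and 100% = maraviroc near 300 nM; one replicate is shown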
Rce1 inhib: yeast Ras-converting enzyme inhibition. Q03530. yeast membranes, quenched prenylated peptide cleavage fluorescence. calls only. 290,000 tested, 0.27% active;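 active means fall in fluorescence gain of 50% or more versus controls, with final raw signal at or below 3038400; inconclusive means same 50% fall but final raw signal above 3038400; inactive means fall in fluorescence gain under 50%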;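 further: plate controls were neutral control wells for no effect and wells lacking membranes for full effect; tested at 10 µM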
eIF4H inh retest: recorded beside eIF4H inh, whose call it bears; inhibition, %; compound at 20 µM; confirmation average;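 mean of two retest wells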
PABP polyA inh retest: further read-out of PABP polyA inh, marked with its call; inhibition, %; compound at 20 µM; confirmation repeats;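 mean of two retest wells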
MT1-MMP act inh RFP: also measured in MT1-MMP act inh; calls as there; RFP signal change, %; measured here: RFP expression control read;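 0 = vehicle wells; hits needed this value within 50% of zero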
Numbers without * were called inactive; i = inactive; ? = inconclusive; . = no result given. The list is partial. The share of hits here may be higher or lower than overall.

SMILES | CSC inhib | eIF4H inh | PABP polyA inh | Yeast UUG start | MT1-MMP act inh | MT1-MMP act inh RFP | Env fusion inh | Rce1 inhib | others
CCOC(=O)c1ccc(NC(=O)c2n[nH]c(=O)c3ccccc23)cc1 | -5 | 3 | 1 | . | 2 | 2 | 15 | i
O=C(NC1CCCCC1)N1CCN(C(=O)c2ccco2)CC1 | -10 | -1 | 5 | -11 | 10 | 6 | . | i
CC1CN(Cc2nc3c(c(=O)[nH]c(=O)n3C)n2CCCc2ccccc2)CC(C)O1 (centres undefined) | 10 | 1 | -6 | -2 | -3 | 1 | . | i
O=C(NCc1cccs1)C1CCCN(S(=O)(=O)c2cnc[nH]2)C1 (centres undefined) | . | -1 | -4 | -8 | -3 | 7 | -23 | i
S=C1NC[C@H](Cc2cccc3ccccc23)N1CC1CCCCC1 | 14 | -5 | -1 | -23 | 5 | -3 | -22 | i
CCOC(=O)C1C(=O)Nc2nc(C)nn2C1c1ccccc1 (centres undefined) | -13 | -6 | 2 | -10 | -1 | 2 | 20 | i
CSc1ncnc2c1ncn2CCCN1CCN(c2ccccn2)CC1 | . | . | . | -18 | 1 | 2 | -10 | .
CCOc1ccc(OCCC(=O)N(CC(C)C)c2c(N)n(Cc3ccccc3)c(=O)[nH]c2=O)cc1 | . | . | . | -35 | -5 | -3 | 7 | .
Cc1cc(C)c(C#N)c(SCC(=O)Nc2ccccc2C(N)=O)n1 | 14 | -1 | 9 | -10 | 2 | 3 | -89 | i
Cc1ccc(S(=O)(=O)N/N=C2/CC(c3ccccc3)Oc3ccccc32)cc1[N+](=O)[O-] (centres undefined) | 13 | 2 | -5 | -12 | 0 | -8 | -75 | i
O=C(NN=Cc1ccc(Cl)cc1Cl)c1ccccc1 | . | . | . | -27 | 7 | -5 | -277 | .
CC(OC(=O)c1cccc(-n2cnnn2)c1)C(=O)c1ccccc1 (centres undefined) | 0 | . | . | 1 | 0 | 0 | 1 | i
Nc1ccc(N=Nc2ccccc2)c2ccccc12 | 81* | -8 | 1 | -19 | 3 | 0 | -35 | i
O=C1C(C2=NC(C(=O)O)C3C(=O)N(c4ccc(Cl)cc4)C(=O)C23)=C(O)c2ccccc21 (centres undefined) | -6 | 3 | -1 | -3 | 4 | 3 | -97 | i
C(=N/N1CCN(c2ccccc2)CC1)/c1ccncc1 | 25 | 9 | -10 | . | 3 | -7 | -40 | i
N#C/C(=C\c1ccco1)C(=O)Nc1ccc(S(N)(=O)=O)cc1 | -13 | -5 | 47 | . | -8 | 0 | 20 | i
COc1ccc(/C=N/NC(=O)C2C3CCCCC32C)cc1OC (centres undefined) | 0 | 7 | 6 | . | -3 | -1 | -20 | i
Cc1ccc(NC(=O)N2CCN(C)CC2)cc1NC(=O)N1CCN(C)CC1 | 6 | -1 | 0 | -9 | 0 | 1 | 2 | i
CCNC(=O)C1(C)CCN1C(=O)Cc1ccc(C(C)C)cc1 (centres undefined) | . | . | . | -1 | 2 | 6 | 5 | .
CC(C)(C)NC(=O)C12CCC(C)(c3nc4ccccc4nc31)C2(C)C (centres undefined) | -10 | -11 | 0 | -9 | 0 | 0 | 14 | i
Cc1ccc(OCC(=O)N/N=C\c2ccc(O)c([N+](=O)[O-])c2)c([N+](=O)[O-])c1 | 5 | -5 | 8 | . | 6 | 0 | 11 | i
Cc1cccc(C(C)C)c1NC(=O)COC(=O)C1CC(=O)N(Cc2ccccc2)C1 (centres undefined) | . | . | . | . | 0 | 4 | 15 | i
C[N+]1(C)CC[C@H](OC(=O)[C@@](O)(c2ccccc2)C2CCCC2)C1 | -8 | 13 | 2 | -39 | 1 | 0 | . | i
NC(=O)CSc1nc2cc(S(=O)(=O)N3CCOCC3)ccc2o1 | -11 | . | . | -9 | 1 | -1 | . | .
Cc1ccc(Oc2ccccc2NC(=O)CSCC(=O)Nc2cc(C)on2)cc1 | -18 | . | . | -18 | -2 | -28 | 43 | i
O=C(Nc1ccccc1N1CCCC1)c1ccc([N+](=O)[O-])o1 | 10 | 6 | 15 | -17 | -1 | -2 | -8 | i
CSCCC(NC(=O)COc1ccccc1)C(=O)N(C)CC(=O)Nc1ccc(C)cc1 (centres undefined) | . | . | . | -12 | -2 | -3 | 16 | .
COCCn1nnnc1CN(Cc1cc2cc(OC)c(OC)cc2[nH]c1=O)C1CCCC1 | 6 | 51* | 85* | . | 0 | 0 | . | i
Cc1cccc(CC(=O)Nc2cc(=O)n(C)c(=O)n2C)c1 | -8 | -2 | 0 | -14 | 2 | 1 | 13 | i
CCCOc1ccc(/C=N/NC(=O)C(C)Sc2ccccn2)cc1OCC (centres undefined) | -12 | 3 | 7 | . | 0 | 0 | 16 | i

Sorted by SMILES length (lowest first): some entries from above
SMILES | CSC inhib | eIF4H inh | PABP polyA inh | Yeast UUG start | MT1-MMP act inh | MT1-MMP act inh RFP | Env fusion inh | Rce1 inhib | others
N#C/C(=C\c1ccco1)C(=O)Nc1ccc(S(N)(=O)=O)cc1 | -13 | -5 | 47 | . | -8 | 0 | 20 | i
Cc1ccc(NC(=O)N2CCN(C)CC2)cc1NC(=O)N1CCN(C)CC1 | 6 | -1 | 0 | -9 | 0 | 1 | 2 | i
CSCCC(NC(=O)COc1ccccc1)C(=O)N(C)CC(=O)Nc1ccc(C)cc1 (centres undefined) | . | . | . | -12 | -2 | -3 | 16 | .

The list goes on:
SMILES | CSC inhib | eIF4H inh | PABP polyA inh | Yeast UUG start | MT1-MMP act inh | MT1-MMP act inh RFP | Env fusion inh | Rce1 inhib | others
CCc1noc(C)c1C(=O)N1CCOCC1 | -4 | 4 | 17 | -1 | 0 | 3 | -17 | i
c1coc(CNc2nc(-c3ccncc3)cs2)c1 | -9 | 6 | -4 | -12 | -3 | -7 | -46 | i
COc1ccccc1N1CCN(C(C)C(=O)N2CC(C)OC(C)C2)CC1 (centres undefined) | -3 | -5 | 1 | -11 | 3 | 7 | 6 | i
COc1ccc(C(C#N)N2N=C(C)CC2(C)C)cc1 (centres undefined) | -12 | 101 | 14 | -11 | -6 | -2 | -1 | i | eIF4H inh retest=0;PABP polyA inh retest=-1
COc1cc(-c2[nH]ncc2CN2CCCC2c2nonc2C)cc(OC)c1OC (centres undefined) | -18 | 10 | -12 | . | 0 | 2 | 9 | i
COc1ccc(C2CC(C(F)(F)F)n3nc(C(=O)NCCN4CCOCC4)cc3N2)cc1 (centres undefined) | 2 | -2 | -6 | -22 | 13 | 8 | 9 | .
CCNc1oc(COc2cccc(C)c2)nc1C#N | -2 | 1 | 8 | -13 | -1 | 1 | . | i
CC(C)(C)c1ccc(C(=O)Nc2cccc3c(=O)[nH][nH]c(=O)c23)cc1 | 8 | ? | -9 | -58 | 3 | 4 | -242 | i
N/C(CN1CCCCC1)=N\S(=O)(=O)c1cc(Cl)cc(Cl)c1 | -13 | 2 | -4 | . | -2 | 2 | -1 | i
COc1ccc(NC(=O)c2cccc(S(=O)(=O)N3CCCCC3)c2)c(OC)c1 | -14 | . | . | 8 | -2 | -4 | -2 | i
COc1ccccc1NS(=O)(=O)c1ccc(C)c(C(=O)NCC(c2ccco2)N(C)C)c1 (centres undefined) | -17 | . | . | 2 | 3 | 6 | 3 | i
Brc1ccc2c(c1)C(c1ccc(N3CCOCC3)cc1)=NNC(c1cccs1)=N2 | -5 | 9 | -18 | 5 | -22 | -4 | -13 | i
Cc1c(CCOC(=O)C23CC4CC(CC(C)(C4)C2)C3)sc[n+]1CC(=O)c1ccccc1 | -7 | -9 | -12 | -11 | -3 | 1 | 82* | i
S=C(S)OC1CC2CC1C1CCCC21 (centres undefined) | . | . | . | -3 | -1 | 0 | -3 | .
CCCCOC(=O)c1nnc(-c2ccc(Cl)cc2)o1 | -12 | 0 | -9 | . | 1 | 2 | -7 | i
CC(NC(=O)/C(C#N)=C/c1cn[nH]c1-c1ccccc1)c1ccccc1 (centres undefined) | . | -15 | 0 | 8 | -9 | -9 | . | i
C/C(=C\C(=O)c1cccnc1)Nc1ccc(C(=O)O)cc1 | -7 | 1 | 12 | -11 | 3 | 7 | -35 | i
O=C(COc1ccccc1Cl)NCCC1=CCCCC1 | 9 | -2 | 3 | 27 | -4 | -2 | 10 | i
CC1CCc2c(sc3ncn(CC(=O)N4CCCCC4)c(=O)c23)C1 (centres undefined) | -13 | -8 | 2 | 17 | 2 | 3 | 11 | i
Cc1c(CC(=O)NCC(=O)NCC(=O)O)c(=O)oc2cc3c(cc12)CCC(C)(C)O3 | -13 | -3 | 7 | -22 | 9 | 11 | 0 | ?
O=C(Nc1ccc(N2CCCC2=O)cc1)c1cccc(F)c1 | 15 | 1 | 3 | . | 5 | 1 | . | i
O=C(NC1CCCCC1)c1cc(-c2ccccc2O)on1 | 6 | 1 | 0 | -2 | 4 | 4 | -29 | i
CNC(=O)[C@@]1(Cc2ccccc2)C=C[C@@H](C)N1C(C)=O | 1 | . | . | -11 | 2 | 3 | -12 | i
CCN(c1ccc(NC(=O)COC(=O)C2CCN(c3ccc(C(F)(F)F)cn3)CC2)cc1)C(C)C | . | . | . | -10 | 5 | 2 | 8 | .
CCCn1nnnc1NCc1ccccc1Cl | -7 | -6 | 4 | -18 | 1 | 1 | -5 | i
COc1cc(C(=O)N/N=C(\C)c2ccc(NC(=O)Cc3ccccc3)cc2)ccc1O | -6 | -1 | 2 | 0 | -2 | -1 | -11 | i
COC(=O)c1ccc(C(=O)OC)c(NC(=S)N2CCC(C)CC2)c1 | -8 | -4 | -7 | . | -2 | 2 | 2 | i
CCN=C1S/C(=C/c2ccc(-c3ccc(Cl)cc3C(=O)O)o2)C(=O)N1CC | -1 | 30 | 20 | . | -2 | 5 | 12 | i
O=C(NCC(=O)N1CCN(C/C=C/c2ccccc2)CC1)c1ccc(Br)cc1 | -13 | . | . | -10 | 2 | -6 | 10 | .
Cc1ccc(N2CC(C(=O)Nc3cccc(S(=O)(=O)N4CCOCC4)c3)CC2=O)cc1 (centres undefined) | . | . | . | 16 | 4 | 0 | 2 | .
COc1ccccc1C(=O)NCCC(=O)Nc1ccncc1 | -7 | . | . | -20 | 5 | -1 | 15 | i
Cc1cc2oc(=O)cc(CN3CCc4ccccc43)c2cc1Cl | 6 | -4 | 5 | 16 | 2 | 1 | . | i
CCc1nc2oc3ccccc3c(=O)c2c(=O)n1-c1ccccc1 | -12 | -3 | -6 | -4 | 4 | 1 | -225 | i
CCC/C(C)=N/NC(=O)c1ccccc1O | -14 | -11 | -6 | . | 3 | 4 | 19 | i
O=C(c1cnn(-c2ccccc2)c1)c1ccccc1O | 21 | -5 | -6 | . | 0 | 3 | -57 | i
COc1ccc(NC(=O)Cn2nnc(-c3ccccc3NC(=O)C3CC3)n2)cc1 | -4 | -9 | 1 | -17 | -1 | -5 | . | i
CC(CCc1ccco1)NC(=O)CSc1cc(=O)n(C)c2ccccc12 (centres undefined) | -4 | -2 | 0 | -5 | -1 | -2 | -37 | i
CC[N+]1(C)CCC(=C2c3ccccc3CC(=O)c3sccc32)CC1 (centres undefined) | -2 | -6 | 8 | -13 | 4 | 3 | -16 | i
Cc1nnc(SCC(=O)Nc2nsc(-c3ccc(Cl)cc3)n2)s1 | 2 | -2 | -11 | -7 | -4 | -6 | -419 | i
CC(c1ccc(Cl)cc1)n1c(-c2ccc3ccccc3n2)n[nH]c1=S (centres undefined) | -2 | 32 | 1 | -25 | -6 | -3 | . | i
COc1ccccc1CNC(=O)C1CCC(CNS(=O)(=O)c2ccccc2)CC1 (centres undefined) | . | -4 | 17 | -3 | 2 | 2 | -6 | i
COc1ccc(-c2ccc(C(=O)N3CCOCC3)c3occc23)c(C)c1 | . | . | . | 76 | 8 | -19 | 13 | .
